High-throughput results (PubChem BioAssay)
Sa ugtP lethal – kills S. aureus RN4220 lacking UgtP | S. aureus RN4220 ugtP deletion, OD600 growth, 16 h; some inactives read as strong as hits | growth inhibition, % (no concentration beside the values) | 330,000 tested, 0.54% active | AID 1259309;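 active = z-score under -3 and OD600 up to 0.15 on both plates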;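 also: plate controls were untreated wells for no effect and antibiotic for full effect; wells of about 80 µL received 100 nL stock; the first replicate is given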
Bead autofluor – counter-screen for toxin protease inhibitors: compound fluorescence; 360,000 tested, 3.1% active; fluorescence intensity (concentration not given with the values); AID 624483; compound autofluorescence counterscreen, microsphere flow cytometry; active compounds read high;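 active = at least 3 SD above the mean of all compounds, about 16000 in these data; inconclusive = too few beads counted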;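 also: 100 nL of 1 mM stock went into each well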
Mtb hypoxia rep – reduces hypoxia-regulated biosensor signal in M. tuberculosis; 300,000 tested, 0.1% active; M. tuberculosis hypoxia-regulated fluorescent reporter, fluorescence; fluorescence inhibition, % (test concentration not listed);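 active = 35 to 45% if threefold the growth effect, above 45% if 1.5-fold the growth effect; inactive = the rest, general growth blockers included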;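 also: wells of about 50 µL received 100 nL stock; 0% = vehicle wells and 100% = reference inhibitor wells; whole bacteria with a GFP reporter of the hypoxia response; strong numbers were not always called active; many hits fall short of the cut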
RN4220 kill – kills Staphylococcus aureus RN4220; S. aureus RN4220 growth, OD600, 16 h; inhibition, % (no concentration beside the values); 330,000 tested, 0.33% active; AID 1259311;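 active = z-score of -3 or lower and OD600 up to 0.18 on both plates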;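 also: plate controls were untreated cells for no effect and reference antibiotic for full effect; stock transfer was 100 nL into about 80 µL; one replicate is shown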
BJeLR lethal – BJeLR cell viability loss; AID 1554; inhibition, % (no concentration beside the values); BJeLR (HRASV12) viability, CellTiter-Glo ATP luminescence, 48 h; reference of the scale not given here; 300,000 tested, 0.17% active;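 active = replicate mean above 50%; inconclusive = above 50% but judged a plate artefact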;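 also: 50 nL library stock added to about 25 µL; numbers are from one replicate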
PrP 5UTR inh – inhibition of PrP 5' UTR reporter expression | inhibition, % (concentration not given with the values) | 340,000 tested, 0.35% active | cell-based PrP 5' UTR mRNA reporter, plate reader | AID 488862;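 active = every replicate at 50% or more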;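 also: 0 = median of the neutral control wells; tested in H4 reporter cells; numbers are from one replicate; inactives centre near -14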
Mtb hypoxia rep growth – second read-out of Mtb hypoxia rep, no call of its own (marks repeat the call); growth inhibition, %; measured here: M. tuberculosis growth (absorbance);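 0% = vehicle and 100% = reference antibiotic; read after six days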
* marks the source's active call; other numbers are inactive results; ? = inconclusive; . = no result given.

Assay codes: A = Sa ugtP lethal; B = Bead autofluor; C = Mtb hypoxia rep; D = Mtb hypoxia rep growth; E = RN4220 kill; F = BJeLR lethal; G = PrP 5UTR inh
Cc1cccc(N2C(=O)SC(N(CC(=O)O)c3cccc(C)c3)C2=O)c1 (stereo not given)
  A: 3	B: 4212	C: .	D: .	E: 3.1	F: 0	G: -13

CC(Sc1ccccc1)C(=O)NN=C1CCCCCC1 (stereo not given)
  A: 5	B: 5017	C: 6	D: 14	E: 11	F: -1	G: 0

Cc1ccc(CNC(=O)c2ccc3c(=O)n(CCCN4CCCC4=O)c(=S)[nH]c3c2)cc1
  A: 12	B: ?	C: 10	D: 5	E: -2.6	F: 1	G: -6

Cc1cc(C)n(CCN(C)C(=O)c2cc(COc3c(F)cccc3F)on2)n1
  A: 1	B: 2226	C: 7	D: 5	E: 2.6	F: -6	G: -7

CCNC(=O)NC(=O)C(C)OC(=O)CNS(=O)(=O)c1c(Cl)cc(Br)cc1Cl (stereo not given)
  A: 4	B: 4087	C: 13	D: 0	E: 1.3	F: 2	G: -3

Nc1ccccc1Oc1ncc(C(F)(F)F)cc1Cl
  A: 1	B: 10343	C: -1	D: 0	E: -1.5	F: 0	G: -10

Cc1ccc(CN2CCN(N=Cc3ccc(C(F)(F)F)cc3)CC2)c(C)c1
  A: 71	B: .	C: 3	D: 2	E: -5.9	F: .	G: .

O=C(CCCC(=O)OCC(Cl)=C(Cl)Cl)Nc1ccccc1
  A: -2	B: 2522	C: 3	D: 11	E: 4.2	F: 3	G: -20

CSc1nnc(CNS(=O)(=O)c2ccc(Br)cc2)n1C
  A: 5	B: 5745	C: -8	D: -3	E: 2.3	F: 6	G: -6

Nc1nc2ccccc2n1CCOc1ccc(Br)cc1
  A: -11	B: 3902	C: 6	D: 6	E: 0.1	F: 21	G: -21

CCCN(C1CCS(=O)(=O)C1)S(=O)(=O)c1ccc(F)cc1 (stereo not given)
  A: 1	B: 6910	C: 6	D: 0	E: 1.6	F: -5	G: -17

Cc1c(C)c2c(OCC(=O)N3CCC(O)CC3)cc3c(c2oc1=O)CCC(C)(C)O3
  A: -4	B: 5647	C: .	D: .	E: 1.9	F: -1	G: 26

O=C(O)CCc1ccc(-c2cccs2)n1CCC(=O)O
  A: 6	B: 2944	C: .	D: .	E: 1.2	F: 2	G: -28

CC(C)(C)OC(=O)NC(Cc1ccccc1)C(=O)NC(CO)C(O)C1CC1C(=O)N1CCCC1 (stereo not given)
  A: 4	B: .	C: 9	D: -2	E: 6.5	F: .	G: .

COc1cccc(C=NNc2cc(Cl)nc(C)n2)c1O
  A: -4	B: .	C: 1	D: 5	E: 1.0	F: .	G: .

O=C(O)C1C2CCC(O2)C1C(=O)Nc1ccc(O)cc1 (stereo not given)
  A: .	B: 2455	C: .	D: .	E: .	F: -5	G: -2

CCOC(=O)c1cncc(C#CCOC(=O)Nc2ccc(OC(F)(F)F)cc2)c1
  A: 5	B: 6195	C: 4	D: -3	E: 5.1	F: -5	G: -16

COc1ccc(C(=O)Nc2cc(C)on2)c(OC)c1
  A: 4	B: ?	C: -5	D: 11	E: 0.1	F: -6	G: -50

O=C(NCCO)/C(=C/c1ccco1)NC(=O)c1ccco1
  A: 15	B: 4692	C: 7	D: 9	E: 4.7	F: -4	G: -15

CCCCNC(=O)Nc1ccc(C2SCCS2)cc1
  A: -1	B: 4382	C: 5	D: 2	E: 2.8	F: 1	G: -61

Cc1c(Cl)cccc1NC(=S)N1CCCN(Cc2ccc(F)cc2)C1
  A: 4	B: 4080	C: 7	D: 2	E: -4.1	F: -1	G: -10

Cc1cccc(NC(=S)NCc2ccccc2Cl)c1C
  A: 2	B: 4243	C: 13	D: 4	E: 0.4	F: -9	G: -23

CC(=NNS(=O)(=O)c1ccc(C)cc1)c1c(O)c2ccccc2oc1=O
  A: 2	B: .	C: 10	D: -3	E: 7.1	F: .	G: .

CN(C)CCNc1oc(COc2ccc(-c3ccccc3)cc2)nc1C#N
  A: 12	B: 11694	C: 0	D: 6	E: 0.3	F: -2	G: 14

O=C(CCNC(=O)c1ccccc1Cl)Nc1nc2ccc(F)cc2s1
  A: 2	B: 3578	C: 7	D: 17	E: 5.4	F: .	G: -19

CCc1nnc(NC(=O)CCC(=O)NCc2ccc(C)cc2)s1
  A: 12	B: 4537	C: 2	D: -2	E: 5.9	F: -3	G: -15

CCOc1ccc(CNn2nnnc2N)cc1
  A: 4	B: 4091	C: .	D: .	E: 3.3	F: -3	G: -4

CCOc1ccc(C(=O)Nc2cccc([N+](=O)[O-])c2)cc1Br
  A: -3	B: 2616	C: 15	D: 10	E: 0.9	F: -1	G: -30

CCC(C)NC(=O)C1CCCN(S(=O)(=O)c2ccc(-n3cnnn3)cc2)C1 (stereo not given)
  A: 7	B: 4872	C: 8	D: 6	E: 3.6	F: -9	G: -10

CCn1c(Cn2nnc(-c3ccccc3)n2)nnc1SCC(=O)Nc1ccc(C(C)=O)cc1
  A: -1	B: 9620	C: 5	D: -3	E: 7.4	F: -13	G: -54

CN(C)c1ccc(CNS(=O)(=O)c2ccc3c(c2)C(C)(C)C(=O)N3C)cc1
  A: 7	B: 5984	C: -3	D: 2	E: 0.9	F: 3	G: 2

Cc1ccc2c(c1)cc(CN(Cc1cccs1)C(=O)c1ccco1)c1nnnn12
  A: 1	B: 3962	C: 6	D: 6	E: -2.4	F: 7	G: -20

O=C(CSCc1ccc(Cl)cc1)N/N=C/c1ccco1
  A: .	B: 4072	C: .	D: .	E: .	F: -9	G: -34

CC(=O)N1CCc2cc(S(=O)(=O)NCCCN3CCC(C)CC3)ccc21
  A: 7	B: 5484	C: 8	D: 11	E: 2.4	F: -4	G: -4

CCOc1ccc(N2C(=O)C3CCCN3C2=O)cc1 (stereo not given)
  A: 4	B: 2693	C: .	D: .	E: 2.4	F: 4	G: -19

CC(C)OC(=O)/C(C#N)=C/c1c[nH]c2ccccc12
  A: 6	B: 2349	C: 11	D: -4	E: 10	F: 9	G: -13

CCN(CC)C(=O)c1cccc(NC(=O)CC23CC4CC(CC(C4)C2)C3)c1
  A: -2	B: 5708	C: 11	D: 4	E: 2.4	F: -16	G: -6

COc1cccc(C=NNc2cc(-n3nc(C)cc3-c3ccccc3)ncn2)c1O
  A: 101*	B: .	C: 2	D: 3	E: 100*	F: .	G: .

O=C(CCc1ccc(S(=O)(=O)N2CCOCC2)cc1)Nc1ccccc1F
  A: 5	B: 3432	C: 2	D: -1	E: 4.8	F: .	G: -17

O=C(NCCC(=O)N1CCCCC1)c1ccccc1Cl
  A: 2	B: 5695	C: 0	D: 3	E: -2.5	F: 1	G: -17

Next section, starting with the last four of the part before.
Assay codes: A = Sa ugtP lethal; B = Bead autofluor; C = Mtb hypoxia rep; D = Mtb hypoxia rep growth; E = RN4220 kill; F = BJeLR lethal; G = PrP 5UTR inh
CCN(CC)C(=O)c1cccc(NC(=O)CC23CC4CC(CC(C4)C2)C3)c1
  A: -2	B: 5708	C: 11	D: 4	E: 2.4	F: -16	G: -6

COc1cccc(C=NNc2cc(-n3nc(C)cc3-c3ccccc3)ncn2)c1O
  A: 101*	B: .	C: 2	D: 3	E: 100*	F: .	G: .

O=C(CCc1ccc(S(=O)(=O)N2CCOCC2)cc1)Nc1ccccc1F
  A: 5	B: 3432	C: 2	D: -1	E: 4.8	F: .	G: -17

O=C(NCCC(=O)N1CCCCC1)c1ccccc1Cl
  A: 2	B: 5695	C: 0	D: 3	E: -2.5	F: 1	G: -17

CC1=CCC(COC(=O)Nc2ccccc2)CC1 (stereo not given)
  A: -7	B: 4108	C: .	D: .	E: 3.3	F: 4	G: -89

C/C(=N/NC(=O)c1ccc(Br)o1)c1ccncc1
  A: .	B: 8629	C: .	D: .	E: .	F: -2	G: -14

O=C(O)C(Cc1ccccc1)n1c(=S)[nH]c2ccccc2c1=O (stereo not given)
  A: 4	B: 4082	C: 1	D: -10	E: 3.7	F: -7	G: 6

CCOC(=O)N1CCN(C(C)C(=O)c2c[nH]c3ccccc23)CC1 (stereo not given)
  A: 9	B: 2447	C: .	D: .	E: 7.1	F: -2	G: -15

O=C(c1ccc(Br)o1)N1CCN(CCc2ccncc2)CC1
  A: 2	B: 3545	C: 5	D: -9	E: 2.3	F: 3	G: -11

CC(C)NC(=O)C(=NO)c1ccccc1
  A: 5	B: .	C: -2	D: -3	E: 2.7	F: .	G: .

O=C(CCc1nc2ccccc2c(=O)[nH]1)NNC(=O)COc1cccc(F)c1
  A: 3	B: 8753	C: 12	D: 7	E: -2.8	F: .	G: -28

O=C1NC(=S)S/C1=C\c1cccc([N+](=O)[O-])c1
  A: 20	B: 3562	C: 4	D: 3	E: 30	F: .	G: -5

CC(C)OCCCN1CN(S(=O)(=O)c2ccccc2)c2nc3ccccc3nc21
  A: -5	B: 3094	C: 19	D: 8	E: -11	F: -4	G: -12

CC(=O)c1sc2nc(CSc3nnnn3-c3ccccc3)[nH]c(=O)c2c1C
  A: 14	B: 4075	C: 2	D: 14	E: -5.8	F: 7	G: -20

CCN(Cc1nc(-c2ccccc2)no1)C(=O)c1ccco1
  A: 1	B: 3945	C: 13	D: 5	E: 5.2	F: -7	G: -22

CCOc1cc(CC(=O)NC(CC(C)C)c2ccccc2N2CCCCC2)ccc1C(=O)O (stereo not given)
  A: 9	B: .	C: 6	D: 10	E: 9.6	F: .	G: .

Cc1cc(C)c(NC(=O)CSc2nnc(-c3ccncc3)n2Cc2ccco2)c(C)c1
  A: 1	B: 5705	C: 3	D: -2	E: 1.5	F: 2	G: 7

COc1ccc(C=NNC(=O)c2ccc(NC(=O)C3CCCCC3)cc2)cc1O
  A: 7	B: .	C: 6	D: 8	E: 3.3	F: .	G: .

CN(CCOc1ccccc1)C(=O)c1ccc(F)c(S(=O)(=O)N2CCOCC2)c1
  A: 3	B: .	C: 6	D: 4	E: 3.4	F: -7	G: -8

CC(C)c1ccc(NC(=O)C2CSC3(C)CCC(=O)N23)cc1 (stereo not given)
  A: -1	B: 7087	C: 0	D: -10	E: -1.0	F: -6	G: -17

O=C1CCCN1c1ccc(S(=O)(=O)Oc2ccc(Cl)cc2)cc1[N+](=O)[O-]
  A: 10	B: 2455	C: 10	D: 8	E: -0.5	F: -1	G: -13

CCCn1nc(C(=O)Nc2nnc(CC)s2)c2ccccc2c1=O
  A: 2	B: 4202	C: 4	D: 4	E: 0.0	F: .	G: -5

CN1/C(=C\C(=O)c2cccnc2)C(C)(C)c2ccccc21
  A: 1	B: 2172	C: 4	D: -2	E: 4.5	F: -9	G: -33

CC(NC(=O)Cc1ccccc1[N+](=O)[O-])c1ccccc1 (stereo not given)
  A: 12	B: .	C: 5	D: -3	E: 4.5	F: 4	G: .

Just Mtb hypoxia rep, Sa ugtP lethal and Mtb hypoxia rep growth, for 6 of the compounds above:
SMILES	Mtb hypoxia rep	Sa ugtP lethal	Mtb hypoxia rep growth
CC(C)c1ccc(NC(=O)C2CSC3(C)CCC(=O)N23)cc1 (stereo not given)	0	-1	-10
CC(NC(=O)Cc1ccccc1[N+](=O)[O-])c1ccccc1 (stereo not given)	5	12	-3
CCCn1nc(C(=O)Nc2nnc(CC)s2)c2ccccc2c1=O	4	2	4
CN(CCOc1ccccc1)C(=O)c1ccc(F)c(S(=O)(=O)N2CCOCC2)c1	6	3	4
CCOc1cc(CC(=O)NC(CC(C)C)c2ccccc2N2CCCCC2)ccc1C(=O)O (stereo not given)	6	9	10
O=C1CCCN1c1ccc(S(=O)(=O)Oc2ccc(Cl)cc2)cc1[N+](=O)[O-]	10	10	8
